Screening data from PubChem.
TRPML1 ag: agonists of human TRPML1 channel; Q9GZU1; TRPML1-expressing cells, Ca2+ dye fluorescence, FDSS; host cell line not named in the record; reference of the full effect not given here; AID 624414; activation, % (no concentration beside the values); 410,000 tested, 0.12% active; in the data active = activation above about 50%; inconclusive = about 30% to 50%; inactive = below about 30%; also: 0% is about no effect; the text of the record puts the active cut at 80%
Target sequence (Q9GZU1 whole entry, looked up): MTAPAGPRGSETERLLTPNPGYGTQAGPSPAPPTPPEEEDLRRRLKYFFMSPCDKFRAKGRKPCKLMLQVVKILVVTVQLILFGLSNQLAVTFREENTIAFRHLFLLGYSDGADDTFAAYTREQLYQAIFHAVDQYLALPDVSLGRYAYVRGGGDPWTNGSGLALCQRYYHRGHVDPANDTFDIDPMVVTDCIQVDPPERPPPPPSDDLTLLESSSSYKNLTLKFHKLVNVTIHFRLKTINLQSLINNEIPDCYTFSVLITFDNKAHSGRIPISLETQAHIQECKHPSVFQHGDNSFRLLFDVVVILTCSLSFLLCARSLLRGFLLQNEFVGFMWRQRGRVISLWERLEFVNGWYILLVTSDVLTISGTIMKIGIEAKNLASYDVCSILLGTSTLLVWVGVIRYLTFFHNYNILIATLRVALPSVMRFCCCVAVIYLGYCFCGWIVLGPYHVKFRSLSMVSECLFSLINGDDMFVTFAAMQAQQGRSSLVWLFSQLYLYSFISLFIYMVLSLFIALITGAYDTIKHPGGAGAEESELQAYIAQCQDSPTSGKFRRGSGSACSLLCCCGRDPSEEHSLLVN
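Tet-induced TRPML1-DL cells, 1,500 per well, cultured overnight, were loaded with a no-wash Ca2+ dye for 45–90 min. Calcium fluorescence was recorded on the FDSS for 110 s after compound addition, before the EC80 agonist (4 uM 54-4) was added.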
PINK1 expr mod: modulators of PINK1 expression; PINK1 immunofluorescence, high-content cytometry, 24 h; Potency, µM (doses to about 76.6 µM), inactives show top-dose activation (PINK1 increase), usual class: activators; 410,000 tested, 0.2% active; active = well fitted activation curve with a large enough effect; inconclusive = small, poorly fitted or top-dose-only effect; inactive = flat fitted curve, though single readings scatter; cell line not stated here;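 also: potency is read from the fitted curve at half-maximal effect; % of control where 0% means no effect; nearly all actives have a fitted effect of over 65% in size; a mitochondrial uncoupler was the plate control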
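Stable cell line, 250 cells/well, 12 h attachment; compounds pinned at 5 concentrations, 24 h; CCCP control. Fixed with nuclear dye, primary antibodies 12 h at 10 degrees C, secondary plus cell stain; laser-scanning cytometer read.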
TRPML1 blocker: inhibitors of human TRPML1 channel | activity change, negative = inhibition, % (no concentration beside the values) | Q9GZU1 | AID 624415 | 390,000 tested, 0.02% active | TRPML1-inducible cells, Ca2+ dye fluorescence, FDSS; stronger effect = lower value; inhibition of EC80 agonist-evoked calcium signal; in the data active means activity change below about -50%; inconclusive means about -30% to -50%; inactive means above about -30%;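 also: stimulus is agonist 54-4 at its EC80 concentration; % is scaled to controls: 0 for no effect and ±100 for the full control effect; compound concentration not given in the record; the text of the record puts the active cut at -80%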
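Calcium fluorescence in TRPML1-DL cells induced overnight with Tet: a 110 s read after compound pin addition, then a 110 s antagonist read after challenge with 54-4 at 4 uM final (EC80).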
D2 ag: human D2 receptor agonism in beta-arrestin assay. P14416. DiscoveRx PathHunter D2 beta-arrestin, luminescence, 90 min; 100% = 57 uM dopamine signal. activation, % (test concentration not listed). 360,000 tested, 0.084% active. AID 624465; in the data active = activation above about 40%; inconclusive = about 15% to 40%; inactive = below about 15%; also: compound concentration not given in the record; the text of the record calls up to 30% inactive
Target sequence (P14416 whole entry, looked up): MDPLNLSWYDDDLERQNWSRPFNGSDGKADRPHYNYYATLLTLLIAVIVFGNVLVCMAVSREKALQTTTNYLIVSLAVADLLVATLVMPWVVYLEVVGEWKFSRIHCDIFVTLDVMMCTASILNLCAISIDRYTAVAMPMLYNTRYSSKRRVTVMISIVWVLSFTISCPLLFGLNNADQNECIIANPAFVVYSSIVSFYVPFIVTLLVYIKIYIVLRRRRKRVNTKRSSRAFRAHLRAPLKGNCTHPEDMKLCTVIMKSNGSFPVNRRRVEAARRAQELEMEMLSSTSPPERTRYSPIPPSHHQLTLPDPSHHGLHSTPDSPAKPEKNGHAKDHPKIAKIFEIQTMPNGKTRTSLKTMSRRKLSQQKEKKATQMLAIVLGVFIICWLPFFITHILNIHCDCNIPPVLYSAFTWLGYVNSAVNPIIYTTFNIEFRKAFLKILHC
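DiscoveRx PathHunter D2 beta-arrestin cells (2,100/well) attached overnight, then compound-stimulated 90 min at 37 C in HBSS/10 mM HEPES/0.1% Tween-20 buffer; beta-galactosidase complementation read by luminescence after 1 h at ambient temperature. Dopamine 57 uM final (EC100) as control.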
Six1-Eya2 inh: blocks human Six1 binding to Eya2. Q15475+O00167. AlphaScreen GST-Six1/His-Eya2 binding, biochemical; stronger effect = lower value; control for the full effect not named in the record. activity change, % (no concentration beside the values). 360,000 tested, 0.56% active. AID 651725; in the data active = activity change below about -65%; inconclusive = about -30% to -65%; inactive = above about -30%; also: % is scaled to controls: 0 for no effect and ±100 for the full control effect; compound concentration not given in the record
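AlphaScreen with GST-Six1 and His-Eya2 (5X mix: 250 nM and 500 nM), glutathione donor and nickel acceptor beads; buffer 50 mM Tris pH 8.0, 300 mM NaCl, 1 mM TCEP; 1 h at 37 C in the dark.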
D2 PAM: human D2 receptor positive allosteric modulation | P14416 | potentiation, % (test concentration not listed) | DiscoveRx D2 beta-arrestin cells, luminescence, 90 min; 100% = 57 uM dopamine signal | AID 624464 | 360,000 tested, 0.23% active; active = potentiation of 50% or more; inconclusive = 30% to 50%; inactive = 30% or less;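 also: compound concentration not given in the record; tested on top of an EC20 dose of dopamine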
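PathHunter beta-arrestin assay in DiscoveRx D2 cells. Compounds were added with an EC20 of dopamine (50 nM final) for 90 min at 37 deg C. Luminescence was read 1 h after detection reagent, with 57 uM dopamine as the EC100 control.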
* = called active by the depositor; ? = inconclusive; / = no result given; & = joins results of further samples; [ ] = dose if it differs, or a comment. Rows were taken by chance; overall some 1% were active at least once.

SMILES	TRPML1 ag	PINK1 expr mod	TRPML1 blocker	D2 ag	Six1-Eya2 inh	D2 PAM
Cc1ccc(C)n1-c1ccc(C#N)cn1	-0.2	0.9%	1.0	-2.0	-0.1	-41.2
CCC1=C(c2ccc(C)cc2)S(=O)(=O)N=C1N1CCC(C(=O)N2CCCCC2)CC1	1.7	-0.4%	?	/	/	/
CCCCCCN1C[C@H](n2cc(-c3ccc(F)cc3)nn2)[C@@H](O)C[C@@H]1c1ccc(C)cc1	/	0.6%	/	-2.3	-3.0	/
CC(=O)N1CCC(=NNc2nc3ccccc3s2)CC1	1.3	-0.6%	18.9	-5.0	-0.9	-3.7
O=C1CSC(=S)N1/N=C/c1ccc(O)c(O)c1O	/	-1.2%	/	7.5	-91.0*	7.1
CCN(CC)C(=O)C(c1ccccc1)S(=O)(=O)N1CCOCC1 (configuration not stated)	0.5	0.2%	-8.7	11.1	12.2	-9.1
O=C(Nc1ccc2nc(SCC(=O)N3CCOCC3)sc2c1)c1cccc(Cl)c1	3.7	-0.6%	19.1	/	/	/
COc1cccc(NC(=O)C2(C)CCN2Cc2ccc3ccccc3c2)c1 (configuration not stated)	0.6	8.0%	/	-4.1	4.2	-4.1
Cc1ccc(NC(=O)CS(=O)CC(=O)NCCCc2ccccc2)cc1Cl (configuration not stated)	0.7	/	?	0.1	22.5	13.0
Cc1ccc(-n2[nH]c(C)c(/C=N/n3c(C)nc4ccccc4c3=O)c2=O)cc1	0.3	?	29.5	-2.2	-14.6	-12.4
O=C(Nc1ccc2c(c1)[C@@H]1C[C@@H](CC(=O)N3CCCCC3)O[C@@H](CO)[C@@H]1O2)NC1CCCCC1	0.5	1.6%	-3.7	-3.8	-12.0	1.8
NS(=O)(=O)c1ccc(NC(=O)COc2ncnc3sccc23)cc1	-0.1	0.9%	-13.5	-0.6	3.4	-1.9
Cc1ccc(C(C(=O)NCC2CCCO2)N(C(=O)c2snc(C(N)=O)c2N)c2ccc(F)cc2)o1 (configuration not stated)	-0.3	-1.6%	-12.4	-1.4	7.7	-4.6
CC/C(C)=N/Nc1ccc(S(=O)(=O)N2CCCC2)cc1[N+](=O)[O-]	2.7	1.3%	35.9	-3.7	?	-3.1
CCCCNC(=O)Oc1ccc(C(=O)N2c3ccccc3NC(=O)C2C)cc1 (configuration not stated)	1.0	0.6%	9.4	1.0	5.8	-9.7
O=C(NCC(O)c1ccccc1)c1ccccc1 (configuration not stated)	-0.6	-0.6%	3.0	-2.8	11.8	-5.0
O=C1CCC(C(=O)N2CCCCO2)CN1Cc1ccc(Cl)cc1 (configuration not stated)	-0.1	-1.6%	10.7	-6.4	-7.0	-12.6
O=C(NCCN1CCCc2ccccc21)C1CCC(=O)N(CCc2ccccc2)C1 (configuration not stated)	0.3	-0.6%	-15.4	3.6	0.9	-1.0
O=c1c2cc(F)ccc2sn1-c1ccccc1	4.5	5.0%	17.3	-2.1	-3.2	-79.2
Cc1c(C#N)sc(C(N)=O)c1C	0.4	-0.6%	-10.3	0.0	6.5	1.7
COc1ccc(C(CC(=O)NCc2ccccc2)N2Cc3ccccc3C2=O)cc1 (configuration not stated)	0.1	0.2%	-7.6	/	/	/
CSc1ccccc1OCc1cc(C(=O)NCC(C)(C)N2CCOCC2)no1	-0.1	-1.2%	-10.5	-2.6	-6.9	-10.0
OC(CC#CCN1CCOCC1)(c1ccccc1)c1ccccc1	/	-0.5%	/	-1.7	1.8	7.8
C=CCN(CC=C)CC(=O)Nc1cccc(Oc2cnccn2)c1	0.6	-0.8%	-8.7	2.2	-3.7	-15.7
O=C(COc1ccc(Br)cc1)N1CCC(c2ccccc2)C1 (configuration not stated)	0.8	1.5%	6.5	-1.8	13.2	-3.8
Next part.
SMILES	TRPML1 ag	PINK1 expr mod	TRPML1 blocker	D2 ag	Six1-Eya2 inh	D2 PAM
C[n+]1ccc(C(=O)Nc2ccccc2Cl)cc1	-0.3	-0.6%	6.0	-4.1	7.0	-20.6
Cc1ccc(OCC(=O)Nc2ccccc2C(N)=O)cc1	-0.1	0.3%	5.0	2.9	3.1	-6.4
CCOC(=O)c1nc(Nc2ccc(C(=O)OCC(C)C)cc2)c2ccccc2n1	2.4	5.4%	-21.4	/	/	/
N#Cc1ccc(Oc2ccc(NC(=O)C3CC=CCC3C(=O)O)cc2)cc1 (configuration not stated)	0.5	4.4%	4.0	-2.1	-7.7	1.2
COc1nc(Nc2ccc(C(C)C)cc2)nc(OC)n1	1.7	2.6%[38.3 µM]	2.1	-2.6	-1.5	-16.5
CCC(C(=O)OC)n1cnc2c(nnn2-c2ccc(OC)cc2)c1=O (configuration not stated)	0.2	6.8%[38.3 µM]	20.8	0.8	0.9	-8.5
O=C(NCc1ccccc1)c1ccccc1OCC(=O)N1CCCCC1	0.3	1.6%	0.7	1.4	6.6	-8.9
O=C1Nc2ccccc2N=C(c2ccccc2)C1N1CCOCC1 (configuration not stated)	-0.4	8.1%	9.0	-2.7	-2.9	-0.1
Cc1noc(NS(=O)(=O)c2ccc(NC(=O)CSc3nc4c(cc3C#N)CCC4)cc2)c1C	-0.4	1.2%	12.4	-4.6	-21.7	-4.7
CN1C(=O)CC(P(=O)(c2ccccc2)c2ccccc2)N(C)C1=O (configuration not stated)	-0.8	0.1%	7.3	-6.4	10.2	-0.1
O=C(Nc1nc2ccccc2n1CCOc1ccc(Cl)cc1)c1ccco1	0.9	10.9%	-4.0	-6.1	-1.1	-9.9
Cc1ccc(C(=O)NC2CCN(CCCC(=O)c3ccc(F)cc3)CC2)cc1	0.4	5.3%	-11.4	-1.6	18.6	-14.5
COc1ccc2ccccc2c1C1NC(=O)c2ccccc2N1 (configuration not stated)	1.2	15.6%	41.9	-0.9	7.9	-14.2
COc1ccc(-c2cccc([C@H]3[C@@H]4C=CCC[C@@]4(C)C(=O)N3Cc3ccccc3)c2)cc1	0.0	16.4%	19.7	-1.4	-6.9	-9.0
Cc1cccc(NC(=O)C2CCCN(C(=O)Nc3ccc(F)cc3)C2)c1C (configuration not stated)	1.2	-0.6%	9.8	-2.5	3.3	-10.7
CCc1cc(=O)oc2cc(OCC(=O)N3CC[C@@]4(O)CCCC[C@H]4C3)ccc12	/	-0.4%	/	-9.7	-3.5	-28.4
COc1ccc2c(c1)c(C(=O)N/N=C/c1ccc(Cl)cc1)c(C)n2C	0.6	8.9%	-9.6	0.8	-8.1	-5.2
COc1cccc(Oc2ccc(C(F)(F)F)cc2N)c1	0.6	4.9%	-10.4	1.2	22.3	4.3
Cc1oc(C)c(C(=O)Nc2ccc(CC(=O)O)cc2)c1C(=O)Nc1ccc(CC(=O)O)cc1	2.2	-1.0%	11.1	1.4	-0.2	15.2
COc1ccc(-n2nc3ccc(NC(=O)COc4ccc(C)c(C)c4)cc3n2)cc1	0.6	8.6%	10.5	/	/	/
Cc1ccc(C)c(S(=O)(=O)N=Nc2c(O)[nH]c3ccccc23)c1	-0.5	0.3%	1.0	-9.5	10.5	-14.4
Clc1ccc(-c2nnc(NC3=NCCCCC3)o2)cc1	0.2	-0.5%	0.7	-1.7	2.0	8.9
COc1ccccc1CNS(=O)(=O)c1ccc2c(c1)CC(C)N2C(=O)C1CCC1 (configuration not stated)	28.4&0.3	3.5%&3.7%	-3.6&-15.6	-8.3	-1.1	-3.0
Nc1nc2c(F)c(F)c(F)cc2s1	1.1	-1.0%	-9.7	-1.4	4.4	-3.0
COc1cc2c(c3ccccc13)CCCC2=O	1.1	0.7%	-9.0	0.3	5.4	-13.5
Other results follow.
SMILES	TRPML1 ag	PINK1 expr mod	TRPML1 blocker	D2 ag	Six1-Eya2 inh	D2 PAM
COCCN(C(=O)Cc1cccs1)c1nnc(-c2ccncc2)s1	0.0	1.7%	20.6	0.8	2.3	-5.3
CCCCCCC1CC(=O)NC(=S)N1 (configuration not stated)	-0.6	2.0%	-27.9	-3.9	-1.7	-0.8
O=C(Cc1cccs1)Nc1ccc([N+](=O)[O-])cc1	/	2.8%	/	0.1	3.2	-1.5
Cc1ccc(NC(=O)c2cccc3c2C(=O)N(C2CCCCC2)C3)c(C)c1	-1.2&0.7	2.5%&1.6%	-1.7&20.2	1.4	5.4	-8.8
CCCNC(=O)N1CCN(S(=O)(=O)c2ccc(C)c(C)c2)CC1	2.4	3.8%[38.3 µM]	-5.3	-5.0	-9.2	-9.0
COc1ccc(CN(C)S(=O)(=O)c2nnc(NC(=O)c3ccccc3)s2)cc1OC	0.4	0.1%	-3.8	1.2	1.2	-0.9
O=C(CNCC1CCCO1)N1CCCCCC1 (configuration not stated)	-1.1	10.0%	-13.0	-4.4	4.7	1.3
Cc1nn(-c2ccccc2)c2nc(N)c(C(N)=O)cc12	-1.3	0.2%	-4.8	0.5	-21.9	-1.6
CCOC(=O)C(C(C)=O)C(c1ccc(OCCC(C)C)cc1)C(C(C)=O)C(=O)OCC (configuration not stated)	-0.4	/	-1.8	0.8	2.3	-15.9
Cc1nn(-c2ccccc2)c(OC(=O)c2ccccc2Cl)c1S(=O)(=O)c1ccccc1	-0.5	5.0%	-4.0	/	/	/
COc1ccc(-c2nn(-c3ccccc3)cc2/C=C(/C#N)C(N)=O)cc1[N+](=O)[O-]	-0.7	4.0%	-6.4	2.5	-14.6	10.9
COc1ccc(C(=O)C[n+]2ccc3ccccc3c2C)cc1	-0.3	0.8%	4.0	-2.0	-1.3	-10.4
CCOc1ccc(NC(=O)c2ccc(NS(=O)(=O)c3cccc4cccnc34)cc2)cc1	-0.6	2.2%	6.6	-0.1	-6.9	-1.7
CCc1nnc(SCC(=O)Nc2cc(OC)ccc2OC)nc1CC	1.5	-0.3%	0.9	/	/	/
CC1NC(=O)c2cc3ccccc3cc2-n2c1nc1cc(F)ccc1c2=O (configuration not stated)	-0.3	5.3%	-6.9	-6.8	-7.0	-1.1
CCOC(=O)CSC1=Nc2ccccc2C2=NC(CCC(=O)NCc3ccc(OC)cc3)C(=O)N12 (configuration not stated)	-0.5	3.2%	6.1	/	/	/
O=C(Cc1ccccc1)N1CCN(C(=O)c2ccco2)CC1	-0.2	-1.2%	-1.0	1.1	-0.3	-5.4
O=C(CN1CCSC1=NCc1ccccc1)c1ccccc1	-0.5	-2.1%	-2.2	-6.7	6.3	-11.8
Cn1c(=O)n(C)c2cc(NS(=O)(=O)c3ccccc3[N+](=O)[O-])ccc21	-0.1	2.8%	-10.0	0.5	0.4	22.0
Cc1cccc2sc(N(Cc3cccnc3)C(=O)C3CCCCC3)nc12	2.2	?	75.0	/	/	/
COc1cc(OC)c(NC(=O)CSCc2nc(-c3ccc(OC)c(OC)c3)no2)cc1Cl	0.8	-5.6%	-10.7	/	/	/
Cc1ccc(NC(=O)CN2C(=O)CCc3cc(S(=O)(=O)N4CCOCC4)ccc32)cc1N(C)C	-0.1	0.5%	13.2	/	/	/

2 entries picked at random from those above:
SMILES	TRPML1 ag	PINK1 expr mod	TRPML1 blocker	D2 ag	Six1-Eya2 inh	D2 PAM
O=C(Cc1ccccc1)N1CCN(C(=O)c2ccco2)CC1	-0.2	-1.2%	-1.0	1.1	-0.3	-5.4
CCc1nnc(SCC(=O)Nc2cc(OC)ccc2OC)nc1CC	1.5	-0.3%	0.9	/	/	/
